eIF4H inh – human eIF4H binding inhibitors, primary screen, translation initiation inhibitor project, biochemical, uHTS, fluorescence polarization; eIF4H fluorescence polarization binding assay; inhibition, % at 35 µM; actives 0.94% (n = 290,000); AID 2012, 2009;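 active = 50% or more with normal probe brightness, or confirmed in later tests; inconclusive = above 50% with abnormal brightness, or retests that disagree; inactive = below 50% or failed in later tests; about a fifth of its hits are not listed in these tables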;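 also: calls also rest on retests at 20 µM and on dose response follow-up; 0% = protein and probe with vehicle and 100% = probe without protein; strong numbers were not always called active; many hits fall short of the cut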
CSC inhib – cancer stem cell viability inhibitors, primary screen, luminescence; AID 2717, 2010; cancer stem cell-like cells viability; inhibition, % at 7.5 µM; actives 1.1% (n = 300,000);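 active = mean at 75% or more and at least half the replicates too; inconclusive = mean and replicates disagree; tested in HMLE shEcad cells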;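 also: 0% = median of negative and 100% = median of positive control wells; the first replicate is given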
PABP FP inh – PABP poly(A) RNA binding inhibitors, primary screen, biochemical, fluorescence polarization, uHTS; inhibition, % at 35 µM; Polyadenylate-binding protein 1 (Homo sapiens), P11940; actives 1% (n = 290,000);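 active = 50% or more with normal probe brightness, or confirmed in later tests; inconclusive = above 50% with abnormal brightness, or retests that disagree; inactive = below 50% or failed in later tests; about a fifth of its hits are not listed in these tables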;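 also: calls also rest on retests at 20 µM and on dose response follow-up; controls were probe without protein and protein plus probe with vehicle; some compounds called inactive have numbers as strong as hits; many hits fall short of the cut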
Target sequence (P11940 whole entry, looked up): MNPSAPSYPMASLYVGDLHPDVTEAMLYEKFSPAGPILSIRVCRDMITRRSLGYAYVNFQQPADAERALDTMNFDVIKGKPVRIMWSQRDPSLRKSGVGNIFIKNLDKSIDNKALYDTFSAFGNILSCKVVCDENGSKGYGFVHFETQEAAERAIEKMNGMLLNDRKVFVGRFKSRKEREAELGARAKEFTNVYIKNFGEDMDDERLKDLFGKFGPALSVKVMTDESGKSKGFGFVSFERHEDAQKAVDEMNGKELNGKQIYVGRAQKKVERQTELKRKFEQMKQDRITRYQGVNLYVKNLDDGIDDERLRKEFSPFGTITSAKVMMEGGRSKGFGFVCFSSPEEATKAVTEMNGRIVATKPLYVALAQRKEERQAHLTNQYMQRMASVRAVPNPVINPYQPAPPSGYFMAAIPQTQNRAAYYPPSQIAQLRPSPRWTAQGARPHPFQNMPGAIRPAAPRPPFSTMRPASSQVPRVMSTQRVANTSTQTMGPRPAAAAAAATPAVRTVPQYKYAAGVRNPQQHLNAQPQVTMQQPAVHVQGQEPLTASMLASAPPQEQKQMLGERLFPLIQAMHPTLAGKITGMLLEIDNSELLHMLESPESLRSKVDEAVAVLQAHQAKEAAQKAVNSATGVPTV
UUG fidelity – modulators of yeast start codon fidelity, primary screen, whole organism, S. cerevisiae, single point, plate reader; AID 602363, 2012; actives 0.13% (n = 350,000); activity score, % at 18.7 µM; S. cerevisiae UUG-firefly luciferase reporter, luminescence/redox ratio;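 active = replicate mean at a twofold rise or more, about +100% in these data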;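 also: firefly luciferase made from a UUG start codon reports start codon fidelity; reporter light over untreated wells divided by growth signal over untreated wells; some hits fall short of that in this replicate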
Rce1 inh – yeast Rce1p protease inhibitors, primary screen, biochemical, fluorescence, cell-free homogeneous; CAAX prenyl protease 2 (Saccharomyces cerevisiae (strain ATCC 204508 / S288c)), Q03530; yeast membranes, quenched prenylated peptide cleavage fluorescence; calls only; actives 0.27% (n = 290,000);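 active = fall in fluorescence gain of 50% or more versus controls, with final raw signal at or below 3038400; inconclusive = same 50% fall but final raw signal above 3038400; inactive = fall in fluorescence gain under 50%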;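 also: plate controls were neutral control wells for no effect and wells lacking membranes for full effect; tested at 10 µM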
Target sequence (Q03530 whole entry, looked up): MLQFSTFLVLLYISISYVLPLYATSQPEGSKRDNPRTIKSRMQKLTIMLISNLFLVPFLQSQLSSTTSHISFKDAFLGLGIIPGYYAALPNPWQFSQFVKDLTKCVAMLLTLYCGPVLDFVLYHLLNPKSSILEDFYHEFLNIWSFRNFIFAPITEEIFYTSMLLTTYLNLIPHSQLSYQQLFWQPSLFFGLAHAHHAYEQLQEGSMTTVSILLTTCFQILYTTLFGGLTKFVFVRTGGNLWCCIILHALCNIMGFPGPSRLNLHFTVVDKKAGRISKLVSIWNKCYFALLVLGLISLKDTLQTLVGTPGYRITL
Env fusion inh – inhibitors of HIV-1 Env-driven cell-cell fusion, primary screen, HeLa-JRFL effector, CEM21 target cells, luciferase | inhibition, % at 12.3 µM | actives 1.1% (n = 360,000);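 active = mean replicate inhibition score of at least 50 and every replicate individually at or above 50; inconclusive = only one of the two criteria met; inactive = mean below 50 and not all replicates reaching 50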;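 also: 0% = plate neutral controls and 100% = maraviroc near 300 nM; one replicate is shown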
MT1-MMP act inh – blockers of MT1-MMP proenzyme processing, primary screen, HT1080 RFP-PRO-GFP cells, GFP/RFP fluorescence; AID 651647, 2012; Matrix metalloproteinase-14 (Homo sapiens), P50281; actives 0.061% (n = 360,000); GFP/RFP ratio change, % at 20 µM; GFP/RFP ratio fluorescence, overnight; percent of plate control window, DMSO zero;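 active = GFP/RFP ratio change of at least 30% with cell ATP level not reduced by more than half and red fluorescence within 50% of control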; also: strong numbers were not always called active
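Read-out: GFP/RFP fluorescence ratio; Test system: RFP-PRO-GFP reporter HT1080 cells; Compound dosing: single-point 20 µM compound, 1% DMSO; Times: overnight compound exposure at 37 °C.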
MT1-MMP act inh RFP – second read-out of MT1-MMP act inh, no call of its own (marks repeat the call); RFP signal change, %; measured here: RFP expression control read;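 0 = vehicle wells; hits needed this value within 50% of zero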
Numbers without * were called inactive; i = inactive; u = inconclusive; x = not tested or not shown. This is a subset; the hit share may differ from the screen's.

1	Cc1nc(C(=O)N2CCCC(Nc3ccc(C)c(C)c3)C2)cs1 (centres undefined)
2	CCNC(=O)C1(C)CCN(C(=O)c2ccc(OC(F)F)cc2)C1 (centres undefined)
3	COc1ccc(N(Cc2cc3cc(OC)ccc3[nH]c2=O)S(C)(=O)=O)cc1
4	Cc1cccc(-c2cc(C(=O)N3CCCc4ccccc43)c3ccccc3n2)c1
5	CCOc1ccc(S(=O)(=O)Nc2ccncc2)c(C)c1C
6	CS(=O)(=O)c1cccc(S(=O)(=O)N2CCN(c3ccccn3)CC2)c1

assay / entry	1	2	3	4	5	6
Rce1 inh	i	x	i	i	i	i
CSC inhib	-9.1	x	-17.2	29.9	12.6	x
Env fusion inh	1.3	1.7	-60.6	12.0	-5.5	-5.7
PABP FP inh	-8.5	x	-4.5	-3.8	-6.6	-7.9
MT1-MMP act inh	-4.3	3.9	-2.0	-7.4	-4.3	5.7
MT1-MMP act inh RFP	-3.5	7.6	-3.8	-11.1	-5.6	3.3
eIF4H inh	-3.0	x	-4.3	-7.2	-11.0	-4.0
UUG fidelity	-5.4	-16.4	-2.1	-10.4	-19.7	-19.1

7	COn1c(SCc2cccnc2)nc2ccccc2c1=O
8	Cc1sc2nc(C(C)Nc3ccccc3N3CCOCC3)[nH]c(=O)c2c1C (centres undefined)
9	COc1ccc2[nH]c(C)c(CCNC(=S)Nc3ccc(C)cc3)c2c1
10	Cc1c(C(=O)Nc2ccc(C(=O)Nc3ccccc3)cc2)cccc1[N+](=O)[O-]
11	COc1cccc(C2=NOC(C(=O)Nc3ccc(OC)c(OC)c3)C2)c1 (centres undefined)
12	O=C(CSc1nnc(-c2cccs2)o1)N1CCCCC1

assay / entry	7	8	9	10	11	12
Rce1 inh	i	i	i	i	i	i
CSC inhib	-2.4	13.1	1.0	x	x	10.2
Env fusion inh	x	-91.1	-5.2	-3.3	36.3	-54.6
PABP FP inh	3.7	-7.6	-6.0	47.1	-7.0	-13.0
MT1-MMP act inh	6.0	-8.9	0.9	-3.6	3.1	-3.2
MT1-MMP act inh RFP	6.0	-8.5	-2.3	-7.2	-4.4	4.4
eIF4H inh	-2.3	-10.8	-1.6	-0.1	-5.7	-3.1
UUG fidelity	-23.0	-7.7	-2.7	-15.6	1.8	-7.7

Full records as entered above. Screens in order: Rce1 inh, CSC inhib, Env fusion inh, PABP FP inh, MT1-MMP act inh, MT1-MMP act inh RFP, eIF4H inh, UUG fidelity
Entry for COc1ccc2[nH]c(C)c(CCNC(=S)Nc3ccc(C)cc3)c2c1 → i, 1.0, -5.2, -6.0, 0.9, -2.3, -1.6, -2.7
Entry for COn1c(SCc2cccnc2)nc2ccccc2c1=O → i, -2.4, x, 3.7, 6.0, 6.0, -2.3, -23.0
Entry for COc1cccc(C2=NOC(C(=O)Nc3ccc(OC)c(OC)c3)C2)c1 (centres undefined) → i, x, 36.3, -7.0, 3.1, -4.4, -5.7, 1.8
Entry for Cc1sc2nc(C(C)Nc3ccccc3N3CCOCC3)[nH]c(=O)c2c1C (centres undefined) → i, 13.1, -91.1, -7.6, -8.9, -8.5, -10.8, -7.7

Next compounds:
13	Cc1ccccc1NC(=O)COC(=O)CCc1nc2ccccc2c(=O)[nH]1
14	O=C1CC(c2ccc(F)cc2)Sc2ccccc2N1 (centres undefined)
15	CC(=O)[C@@]1(O)C(C)CC2C3C=C(C)C4=Cc5c(cnn5-c5ccccc5)C[C@]4(C)C3C(O)C[C@@]21C (some centres undefined)
16	COCCN1C(=O)CCC1(C)C(=O)Nc1ccc2ccccc2c1 (centres undefined)
17	c1ccc(COc2ccc(Nc3ncnc4nc[nH]c34)cc2)cc1
18	CCOC(=O)c1cnc2ccccc2c1NCc1ccco1

assay / entry	13	14	15	16	17	18
Rce1 inh	i	i	i	x	i	i
CSC inhib	-0.5	x	99.8*	x	0.4	-1.2
Env fusion inh	-18.5	-5.7	-6.2	-12.0	-20.4	-3.8
PABP FP inh	39.5	-3.3	0.0	x	5.7	1.8
MT1-MMP act inh	-3.8	1.4	-5.7	-0.3	2.4	-3.3
MT1-MMP act inh RFP	3.5	2.8	-8.0	-2.2	-14.0	-7.7
eIF4H inh	-1.2	1.8	-6.4	x	-14.3	3.1
UUG fidelity	-25.3	-16.6	-11.9	-14.2	-18.9	-4.0

19	CN(Cc1ccc(Cl)cc1)C(C(=O)NC1CCCCC1)c1cc2ccccc2o1 (centres undefined)
20	Cc1ccsc1/C=N/n1c(-c2cc(-c3ccccc3)n[nH]2)n[nH]c1=S
21	Cc1ccc(Cl)cc1N1CCN(S(=O)(=O)N2CCCCC2)CC1
22	Cc1cccc(N2CCN(C(=O)C3(S(=O)(=O)c4ccc(Cl)cc4)CC3)CC2)c1C
23	COc1ccccc1NC(=O)/C(=N/OCc1ccc(C#N)cc1)C(C)=O
24	COc1ccc(C)cc1NC(=O)c1ccc(CN2CCc3ccccc3C2)cc1

assay / entry	19	20	21	22	23	24
Rce1 inh	x	i	x	i	i	i
CSC inhib	x	-4.5	5.8	13.9	20.5	18.4
Env fusion inh	-12.4	5.8	19.7	-11.6	16.4	3.7
PABP FP inh	x	4.6	-6.2	7.6	-1.0	-1.2
MT1-MMP act inh	-7.3	4.8	-7.1	3.9	-0.3	-2.9
MT1-MMP act inh RFP	-12.7	-3.3	-7.2	1.4	0.0	-0.3
eIF4H inh	x	46.0	-8.0	1.9	-10.4	-8.4
UUG fidelity	-13.5	x	x	x	x	-1.5

25	CCN(CC)C(=O)c1[nH]cnc1C(=O)NCc1ccc(CNC(=O)OC(C)(C)C)cc1
26	CCCc1cc(=O)oc2c(C)c(OCC(=O)NCCCn3ccnc3)ccc12
27	COC(=O)c1ccc(-c2ccc(OC)c([C@H]3[C@H]4C=CC[C@@H](C)[C@@H]4C(=O)N3Cc3ccccc3)c2)cc1
28	O=C(COC(=O)CC1CC2CCC1C2)NCc1ccccc1 (centres undefined)
29	CCN1CCN(C(c2cc(OC)ccc2OC)c2nnnn2Cc2ccccc2)CC1 (centres undefined)
30	O=S(=O)(c1cccc2cccnc12)N1CCc2ccccc21

assay / entry	25	26	27	28	29	30
Rce1 inh	x	i	i	x	i	i
CSC inhib	-6.6	50.1	21.1	x	16.4	-2.5
Env fusion inh	2.4	3.5	64.0*	-20.5	x	x
PABP FP inh	x	1.7	0.7	x	21.0	5.5
MT1-MMP act inh	7.1	-0.7	-14.8	1.4	3.9	1.8
MT1-MMP act inh RFP	-2.7	-2.1	-21.6	4.0	7.0	-1.6
eIF4H inh	x	2.6	-3.7	x	0.5	1.9
UUG fidelity	-17.9	-20.1	4.7	-6.7	-5.4	x

31	CC(=O)Nc1ccc(/C=N/Nc2nncc3ccccc23)cc1
32	CCN(c1ccccc1)S(=O)(=O)c1nnc(NC(=O)c2ccccc2OC)s1
33	O=C(NCCOC(=O)c1ccc(C(=O)OCCNC(=O)c2ccccc2)o1)c1ccccc1
34	CCCOc1ccc(C(=O)NCC2OCCc3ccccc32)cc1OC (centres undefined)
35	CCN(CC)c1ccc(/C=C2\CCC(/C=N/NC(=O)c3ccc(=O)n(C)c3)=C2N2CCOCC2)cc1
36	N#C/C(=C\c1ccc(O)c(O)c1)C(=O)NCCCc1ccccc1

assay / entry	31	32	33	34	35	36
Rce1 inh	i	i	i	i	i	i
CSC inhib	-1.6	-8.3	-14.8	1.4	9.0	67.8
Env fusion inh	-17.4	-11.0	x	3.2	9.4	-8.4
PABP FP inh	-1.7	6.6	1.9	1.8	13.2	5.4
MT1-MMP act inh	6.6	4.7	2.8	-0.1	-28.2	-15.4
MT1-MMP act inh RFP	3.9	-0.4	2.5	-3.7	50.2	-18.9
eIF4H inh	-4.2	-8.9	-4.8	-2.1	u	1.5
UUG fidelity	-26.3	-9.9	-9.9	x	x	-36.1

37	CSc1nsc(SC)c1C(N)=O
38	CC(CCc1ccccc1)NC(=O)C1CCN(c2nnc(-n3cccc3)s2)CC1 (centres undefined)
39	COc1ccc(CN2CCc3ccc(NC(=O)c4ccncc4)cc3C2)c(F)c1
40	O=C(C1CCC1)N1CCN(c2ccc(C(F)(F)F)cc2[N+](=O)[O-])CC1
41	CN(C)c1cc(=O)n2c(n1)SCCC2
42	Cn1c(SCC(=O)Nc2ccccc2F)nnc1-c1cc2ccccc2o1

assay / entry	37	38	39	40	41	42
Rce1 inh	i	i	i	i	i	i
CSC inhib	-8.9	-25.2	-7.6	9.1	-6.0	-5.3
Env fusion inh	-4.9	4.8	11.8	8.7	x	-39.1
PABP FP inh	7.5	14.6	-13.7	0.4	3.9	7.3
MT1-MMP act inh	-1.7	-1.5	0.7	6.4	3.6	8.8
MT1-MMP act inh RFP	-1.2	-4.5	-1.4	-0.1	6.0	5.7
eIF4H inh	-14.3	0.5	-7.6	-2.1	0.3	1.1
UUG fidelity	x	-13.3	-12.7	9.2	-4.4	-13.4

43	Cc1cc(F)ccc1C(O)c1ncc(-c2ccccc2C(F)(F)F)[nH]1 (centres undefined)
44	CC12CCC(=O)N1C(C(=O)Nc1nc(-c3ccc(F)cc3)cs1)CS2 (centres undefined)
45	COc1ccccc1NC(=O)C1CCCN(c2cc(C)nc3ncnn23)C1 (centres undefined)
46	CC(C)NC(=O)c1onc(CSc2ccc(F)cc2)c1C(=O)O
47	CCNC(=S)N(CCc1ccccc1C)Cc1cc2cc(OC)c(OC)cc2[nH]c1=O
48	CCCC/C=C/C(NC(=O)c1ccc(-c2ccccc2)cc1)c1ccccc1 (centres undefined)

assay / entry	43	44	45	46	47	48
Rce1 inh	x	i	i	i	i	i
CSC inhib	x	-5.0	-1.9	9.1	14.5	-8.0
Env fusion inh	-29.3	-27.0	x	28.0	-5.7	32.2
PABP FP inh	x	x	-8.3	2.3	-1.5	x
MT1-MMP act inh	-0.9	1.1	5.0	-2.6	-2.8	11.0
MT1-MMP act inh RFP	-1.6	-8.7	6.1	1.9	-1.1	-5.5
eIF4H inh	x	x	0.4	-3.6	1.5	x
UUG fidelity	-15.9	x	-25.0	-13.9	x	10.1

49	CC1(C(=O)N2CCN(c3ccccc3)CC2)CC1(Cl)Cl (centres undefined)
50	CSc1cccc(NC(=S)N(Cc2ccccc2)Cc2ccccn2)c1
51	O=C(CN1CCSc2ccccc21)NCCCc1ccccc1
52	CC(=O)N1CCCN(Cc2cn(-c3cccc(C)c3)nc2-c2cccc(F)c2)CC1
53	Cn1c(=O)c2cc(NC(=O)Cc3ccccc3F)ccc2n1Cc1ccc(Cl)cc1
54	COc1cc(C)nc(N2CCC(C(=O)NC3CCCCC3)CC2)n1
55	O=C(Nc1cccc(F)c1)Nc1ccc2c(c1)OCO2
56	CC(C)OC(=O)C1C(=O)CC(C)(O)C(C(=O)OC(C)C)C1c1ccc([N+](=O)[O-])cc1 (centres undefined)

assay / entry	49	50	51	52	53	54	55	56
Rce1 inh	i	i	i	i	x	i	i	i
CSC inhib	x	-9.5	-8.3	7.8	x	0.6	-4.0	-5.4
Env fusion inh	12.3	14.3	-5.5	-0.2	1.1	x	-25.2	23.0
PABP FP inh	-0.3	2.6	-10.5	6.3	x	3.7	-10.4	-7.7
MT1-MMP act inh	1.6	-3.7	-3.8	4.6	-5.1	0.8	-3.6	-0.8
MT1-MMP act inh RFP	1.6	-2.3	6.5	-1.7	-3.6	5.1	-1.7	0.2
eIF4H inh	-0.4	-2.2	0.9	-1.4	x	-9.3	-12.5	0.1
UUG fidelity	5.3	x	x	-10.1	-8.5	9.4	-14.1	x
